Source: PubChem (National Center for Advancing Translational Sciences (NCATS))
SARS PLpro yeast – qHTS of Yeast-based Assay for SARS-CoV PLP | S. cerevisiae expressing SARS-CoV PLpro, growth rescue; control for the full effect not named in the record | Potency, µM (series often up to 32.9 µM), for inactives: at the highest dose activity, positive = growth rescue | 330,000 tested, 0.19% active; also: 0% is about no effect; nearly all actives have a fitted effect of over 55% in size; growth read by luminescence after 48 h
NS1 inh – qHTS Assay for Inhibitors of Influenza NS1 Protein Function; S. cerevisiae slowed by influenza A NS1, growth recovery by OD600; Potency, µM (series often up to 46.1 µM), inactives show at the highest dose activity, positive = more growth; 270,000 tested, 0.4% active; also: actives are rising curves; nearly all actives have a fitted effect of over 50% in size
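S. cerevisiae expressing influenza A NS1, grown in glucose, washed, then diluted 1:100 into pH 6.0 -URA galactose medium with 23 nl compound. Growth recovery read as OD600; NS1-free strain serves as control.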
Marburg entry inh – qHTS for inhibitors of binding or entry into cells for Marburg Virus | Marburg virus pseudotyped entry inhibition, cell reporter; control for the full effect not named in the record; about a third of the inactives were read at about 46 µM | Potency, µM (top dose mostly 37.8 µM), for inactives: at the top dose activity change, negative = inhibition, hits mostly inhibitors | 300,000 tested, 1.8% active; active = well fitted inhibition curve with a large enough effect; inconclusive = small, poorly fitted or top-dose-only effect, or effect the other way; inactive = flat fitted curve, though single readings scatter; tested in HEK293 cells; about a fifth of its hits are not listed in these tables; also: % is scaled to controls: 0 for no effect and ±100 for the full control effect; luciferase read-out
StopGo reporter – High Throughput Screening for Foot and Mouth Disease Virus Antivirals; human cells with a luciferase reporter of 2A StopGo recoding; control for the full effect not named in the record; Potency, µM (highest dose often 57.9 µM), without a hit: at the top dose signal change, negative = less light; 410,000 tested, 1.2% active; AID 1159524, 2015; active = well fitted falling curve with a large enough effect; inconclusive = small, poorly fitted or top-dose-only effect; inactive = no such curve, though single readings can be large or run the other way; tested in HEK293T cells; also: % is scaled to controls: 0 for no effect and ±100 for the full control effect; nearly all actives have a fitted effect of over 45% in size; luciferase light after 4 h
Lassa entry inh – qHTS for Inhibitors of binding or entry into cells for Lassa Virus. Lassa virus pseudotype entry inhibition, cell reporter; control for the full effect not named in the record. Potency, µM (doses to about 37.9 µM), without a hit: top-dose activity change, negative = inhibition, hits mostly inhibitors. 300,000 tested, 1.2% active; active means well fitted inhibition curve with a large enough effect; inconclusive means small, poorly fitted or top-dose-only effect, or effect the other way; inactive means flat fitted curve, though single readings scatter; tested in HEK293 cells; also: % is scaled to controls: 0 for no effect and ±100 for the full control effect; nearly all actives have a fitted effect of over 50% in size; luciferase read-out
Cruzain inh noDet – qHTS Assay for Promiscuous and Specific Inhibitors of Cruzain (without detergent); Cruzipain (Trypanosoma cruzi), P25779; AID 1476, 2009; purified cruzain, Z-FR-AMC fluorescence, no detergent; 200,000 tested, 2.3% active; Potency, µM, inactives show max response, negative = inhibition, most hits filed as inhibitors; active = well fitted curve in the direction sought with a large enough effect; inconclusive = small, poorly fitted or top-dose-only effect, or another doubt; inactive = no such curve, though single readings can be large; an effect the other way counts as inactive or inconclusive;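 also: plate controls were enzyme without inhibitor for no effect and buffer without enzyme for full effect; nearly all actives have a fitted effect of over 40% in size; top concentration of the series not given in the record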
Target sequence (P25779 123-467 limits assumed): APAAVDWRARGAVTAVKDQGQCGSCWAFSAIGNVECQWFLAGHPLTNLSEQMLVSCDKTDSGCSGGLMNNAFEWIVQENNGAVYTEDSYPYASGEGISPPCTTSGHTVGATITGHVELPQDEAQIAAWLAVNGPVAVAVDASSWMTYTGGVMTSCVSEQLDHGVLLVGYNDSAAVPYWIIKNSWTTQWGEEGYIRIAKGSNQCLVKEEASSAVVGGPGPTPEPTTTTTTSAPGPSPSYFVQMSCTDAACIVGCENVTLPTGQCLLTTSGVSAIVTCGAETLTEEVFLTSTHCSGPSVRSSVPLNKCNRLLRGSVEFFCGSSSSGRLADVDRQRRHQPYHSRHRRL
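Purified cruzain at 1.5 nM, pre-incubated 15 min with compound at room temperature in 100 mM sodium acetate pH 5.5, 5 mM DTT, 0.00005% Triton X-100. Reaction started with 2 uM Z-FR-AMC; AMC fluorescence increase over 60 s gives rate.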
RE007 growth inh – qHTS Assay for Inhibitors of the HIV-1 protein Vpr. S. pombe RE007 Vpr strain, BacTiter-Glo ATP luminescence, 24 h; control for the full effect not named in the record. 360,000 tested, 0.21% active. AID 651644, 2012. Potency, µM (top dose mostly 92.2 µM), for the others: top-dose activity change, negative = less growth; active = well fitted falling curve with a large enough effect; inconclusive = small, poorly fitted or top-dose-only effect; inactive = no such curve, though single readings can be large or run the other way;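 also: % is scaled to controls: 0 for no effect and ±100 for the full control effect; nearly all actives have a fitted effect of over 50% in size; the assay follows cell death caused by Vpr and the record does not say whether a fall means rescue or toxicity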
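Fission yeast RE007 carrying one integrated HIV-1 vpr copy, seeded at OD 0.01 in PMG+AL medium with 23 nL pinned compound. Grown 24 h at 30 degrees; viability read by BacTiter-Glo luminescence after 5 min.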
Cruzain Triton – qHTS Assay for Promiscuous and Specific Inhibitors of Cruzain (with detergent); purified cruzain, Z-FR-AMC fluorescence, 0.01% Triton; Potency, µM, inactives show max response, negative = inhibition, hits mostly inhibitors; 200,000 tested, 0.43% active; active = well fitted curve in the direction sought with a large enough effect; inconclusive = small, poorly fitted or top-dose-only effect, or another doubt; inactive = no such curve, though single readings can be large; an effect the other way counts as inactive or inconclusive;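 also: plate controls were neutral wells for no effect and buffer without enzyme for full effect; nearly all actives have a fitted effect of over 40% in size; top concentration of the series not given in the record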
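Purified cruzain (1.5 nM final) was preincubated with compounds for 15 min at room temperature in 100 mM sodium acetate pH 5.5, 5 mM DTT, 0.01% Triton X-100. Reaction started with 2 uM Z-FR-AMC; AMC fluorescence change over 60 s gave activity.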
Active calls of the source: *; ? = inconclusive; / = no result given; [ ] = remark or other dose. Unless noted, calls follow the shape of the dose curve; as a rule, active means well fitted rising curve with a large enough effect; inconclusive means small, poorly fitted or top-dose-only effect; inactive means no such curve, though single readings can be large or run the other way. Potency is read from the fitted curve at half-maximal effect.

smiles | SARS PLpro yeast | NS1 inh | Marburg entry inh | StopGo reporter | Lassa entry inh | Cruzain inh noDet | RE007 growth inh | Cruzain Triton
CCOc1cc(C=C(C#N)C#N)ccc1Oc1ccc([N+](=O)[O-])cn1 | -1% | 9% | / | -36% | / | / | -13% | /
Cc1nn(CC(=O)NCc2cccc(Br)c2)c(=O)c2c1sc1ccccc12 | / | / | 9%[46.1 µM] | 0% | 2%[46.1 µM] | 29% | / | -1.6%
CC(C)OC(=O)CCC1(C(=O)O)CCC(=O)NC1 (stereo not given) | 2% | -3% | 11% | 4% | -1% | -5% | 8% | 0.5%
Cc1ccc(OCC(=O)N(Cc2sccc2C)C2CCS(=O)(=O)C2)cc1 (stereo not given) | / | / | 8%[46.1 µM] | 36%[activator] | -20%[46.1 µM] | 2% | / | -5.8%
COc1cc2oc(=O)c(CC(=O)N3CCCCC3)c(C)c2cc1OC | / | / | 12%[46.1 µM] | 16% | 7%[46.1 µM] | ? | / | ?
CN1CCN(c2nc3c(c(=O)[nH]c(=O)n3C)n2Cc2ccc([N+](=O)[O-])cc2)CC1 | -2% | 1% | / | -2% | / | / | -8% | /
Cc1cn(S(=O)(=O)c2ccccc2[N+](=O)[O-])cn1 | -2% | -2% | -1%[14.2 µM] | -2% | ? | / | 1% | /
Cc1cccc(N(C)S(=O)(=O)c2ccc3c(c2)CCC(=O)N3)c1 | 0% | -6% | 15% | -20% | ? | ? | 12% | 1.8%
CCOC(=O)C1CCN(c2ncnc3c2c(-c2ccccc2)cn3-c2ccc(C)c(Cl)c2)CC1 | / | / | / | -11% | ? | -4% | / | -0.4%
Cc1cc(C)c2c(C)c(C(=O)NCc3ccncc3)oc2c1 | -19% | -7% | -15% | -27% | 3% | -7% | 13% | -4.6%
COc1ccc(-n2ncc3c(N4CCC(C(N)=O)CC4)ncnc32)cc1 | -1% | 4% | ? | 56%[activator] | 16% | 23% | -12% | -9.8%
O=[N+]([O-])c1ccc(N2CCN(S(=O)(=O)c3ccc(Cl)cc3)CC2)cc1NCc1cccnc1 | 1% | 1% | 4% | -4% | 0% | ? | 0% | -5.0%
O=C(CNCC1CCCO1)Nc1ccc(N2CCCCCC2)cc1 (stereo not given) | 4% | -4% | -22% | -12% | -38%[14.3 µM] | -18% | 22% | -3.7%
COc1cc(/C=C2\CC/C(=C\c3ccc(OCCO)c(OC)c3)C2=O)ccc1OCCO | 0% | 8% | ? | 35µM* | 1% | / | 7% | /
Cc1nc2ccc(OC(=O)c3ccccc3)cc2s1 | -9% | -31% | / | 55%[activator] | / | / | 1% | /
CC(C)NC(=O)c1ccc(-c2cccc(C(F)(F)F)c2)o1 | -5% | -5% | ? | 37%[activator] | -14% | -4% | 5% | -0.6%
Cc1c(C)c2c(OCC(=O)Nc3cccnc3)cc3c(c2oc1=O)CCC(C)(C)O3 | -1% | -13% | / | -26% | / | / | 7% | /
CC(=O)Nc1ccc(NC(=O)c2ccc(NS(=O)(=O)c3cc(C(C)(C)C)cc(C)c3C)cc2)cc1 | 8% | 11% | -4% | 47%[activator] | ? | ? | -3% | -2.5%
COC(=O)c1cc2c(C)nn(C)c2s1 | 0% | 2% | ? | 1% | -8% | / | -17% | /
CC(O)CNc1nc(Cl)c(C#N)s1 (stereo not given) | 0% | / | -13%[46.1 µM] | -16% | 19% | / | -16% | /
O=C(NCCN1CCCCC1)c1ccc(/C=N/O)nc1 | 8% | 17% | / | -3% | / | / | 3% | /
CCCc1nccn1S(=O)(=O)c1cc(OC)ccc1OC | 1% | -1% | -4% | 39%[activator] | 5% | -6% | 8% | 0.8%
CCc1ccc(OCC(=O)Nc2nnc(C3CCCC3)s2)cc1 | -1% | 8% | / | 3% | / | / | -17% | /
Cn1c(CNC(=O)c2ccco2)nnc1SCC(=O)Nc1ccc(Cl)cc1 | 7% | / | ? | -8% | 17% | / | 2% | /
O=C(Nc1cc2c3c(c1)CC(=O)N3CCC2)c1ccc(F)cc1 | 1% | / | 8% | 2% | 16% | / | 9% | /
C/C(=N\Oc1cccc(F)n1)c1ccc(Cl)cc1Cl | -10% | -3% | -5% | -18% | ? | 0% | -11% | -1.7%
O=C(CCS(=O)(=O)Cc1ccccc1F)NCCCN1CCCCC1 | 1% | -4% | 2% | -15% | 15% | -6% | 2% | 4.9%
Fc1ccc(-n2nnc(-c3ccccc3Cl)n2)cc1 | -5% | 16% | -4%[46.1 µM] | -13% | 3%[46.1 µM] | / | 15% | /
COc1ccc(-c2csc(-n3cccn3)n2)cc1 | -3% | -10% | 19% | 36%[activator] | ? | / | -18% | /
COc1ccc(-n2c(SCC(=O)Nc3cc(C)cc(C)c3)nc3c(oc4ccccc43)c2=O)cc1 | / | / | -20%[46.1 µM] | 0% | / | ? | / | -1.8%
CCCC(=O)Nc1c(-c2ccc(C)cc2)c(=O)c2ccccc2n1C | -1% | 6% | / | -23% | / | / | 0% | /
CCN(CC)c1ccc(/C=N/N2CCN(c3ccccn3)CC2)cc1 | -1% | 1% | 17% | -20% | 19% | / | 16% | /
C=CCn1c(SCC(=O)NCC2CCCO2)nc2sc(C)c(C)c2c1=O (stereo not given) | 2% | -8% | / | -12% | / | / | -3% | /
COc1ccc(-c2nnn3c2nc(NCc2ccc(C)cc2)c2ccccc23)cc1 | / | / | 10%[46.1 µM] | 1% | 10%[46.1 µM] | -11% | / | -0.4%
CC(C)C(=O)Nc1ccc(-c2nc3cccnc3o2)cc1 | -7% | -12% | ? | -26% | ? | 7% | 21% | -17%
CN(CC(=O)Nc1ccc(C#N)cc1)CC(=O)Nc1ccc(N2CCOCC2)cc1 | 11% | 10% | 21% | -26% | -1% | 12% | -14% | -1.3%
Cc1oc(-c2cccc(F)c2)nc1CN(Cc1ccccc1)C[C@@H]1CCC(=O)N1 | -1% | -33% | ? | -17% | ? | / | -8% | /
COc1nc(Nc2ccc3c(c2)OCO3)nc(OC)n1 | -25% | -37% | / | 15% | / | 5% | 17% | 1.5%
Cc1ccccc1NC(=O)c1sc2nc(-c3ccncc3)ccc2c1N | / | / | ? | 0% | -8%[46.1 µM] | 15% | / | -11%
Cc1ccc(NC(=O)c2c(C)oc3ccc(O)c(CN4CCOCC4)c23)cc1 | / | / | -9%[46.1 µM] | -10% | 7%[46.1 µM] | -15% | / | -3.6%
CCN(CC)c1ccc(/C=C2/C(=O)c3ccc(C(=O)O)cc3C2=O)cc1 | 8% | 2% | ? | -22% | ? | ? | -24% | -8.2%
Nn1c(SC/C=C/c2ccccc2)nnc1-c1ccncc1 | / | 0% | 22% | -24% | -20% | -5% | 5% | 3.0%
COCc1cc(=O)[nH]c(Nc2nc3ccc(C)cc3o2)n1 | -5% | -11% | ? | ? | ? | 21% | -16% | 2.3%
CCC1CN(C(=O)Nc2cc(C)ccc2OC)c2cc(Cl)ccc2O1 (stereo not given) | / | / | / | -20% | 0%[46.1 µM] | 9% | / | -5.2%
CCOc1ccc(NC(=O)c2sc3nc(-c4ccc(OC)cc4)cn3c2C)cc1 | / | / | / | 17% | 17%[46.1 µM] | -11% | / | -2.5%
NNC(=O)c1cccc(COCC(F)(F)C(F)F)c1 | -1% | 1% | 26% | -8% | -3% | / | 12% | /
COC(=O)c1ccc(NC(=O)C2(S(=O)(=O)c3ccc(C)cc3)CC2)cc1 | / | / | ? | -12% | 4%[46.1 µM] | 9% | / | 4.2%
O=C(Cc1ccc(Cl)cc1)Nc1cccc2ncccc12 | 0% | 2% | / | -20% | / | / | 5% | /
CCN1CCN(S(=O)(=O)c2ccc(Cl)c(C(=O)NC3CCCC3)c2)CC1 | -5% | / | 0% | -20% | 15% | / | -1% | /
CCOc1ccccc1NC(=O)C(OC(=O)c1ccc(O)cc1)c1ccccc1 (stereo not given) | -56% | -33% | ? | 0% | ? | ? | 11% | -3.1%
O=c1cccc2n1C[C@H]1C[C@@H]2CN2CCCC[C@@H]12 | 2% | 20% | 9%[46.1 µM] | 13% | 2% | / | -15% | /
CNc1nnc(-c2ccc(C)cc2)c2ccccc12 | -1% | / | 22%[46.1 µM] | -24% | 7.9µM* | / | -2% | /
CCCC(=O)N(CC(=O)Nc1sc(C)c(C)c1C(N)=O)Cc1ccccc1 | 1% | 5% | / | -1% | / | / | -17% | /
CCCCNC(=S)NNC(=O)C12CC3CC(CC(C3)C1)C2 | 2% | -3% | 5% | 0% | -23% | 1% | 5% | 0.7%
Cc1cccc(C(=O)N2CCc3cc(CNS(=O)(=O)c4cccs4)ccc32)c1 | / | / | / | ? | ? | ? | / | -0.9%
CC(=O)c1ccc(NC(=O)CCC(=O)N2CC(C)Oc3ccc(C)cc32)cc1 (stereo not given) | 1% | -3% | 7%[46.1 µM] | -18% | ? | / | 2% | /
O=C(O)c1ccc2c(c1)OCCOCCOCCOCCOCCO2 | 7% | -2% | / | -2% | / | / | 4% | /
O=C(Nc1cccnc1)c1ccc2c(c1)C(=O)N(Cc1cccnc1)C2=O | -1% | -6% | 3% | -20% | 10% | -5% | 9% | -0.4%
CC(OC(=O)Cc1c(F)cccc1Cl)C(=O)NC1(C#N)CCCCC1 (stereo not given) | -8% | / | 8% | -8% | 2% | / | 3% | /
CCN(CC)CCN(C)c1ccc(N2C(=O)C3CC=CCC3C2=O)cc1[N+](=O)[O-] (stereo not given) | -2% | / | 4%[46.1 µM] | -17% | 22%[46.1 µM] | / | 6% | /
Cc1ccccc1-n1cc(CNCc2c(C(=O)N(C)C)nc3ccc(Cl)cn23)cn1 | 1% | 2% | / | -14% | / | / | -8% | /
CCOc1ccc(CN2CCCC(C(=O)c3ccccc3OC)C2)cc1 (stereo not given) | 6% | 8% | 8.9µM* | -4% | ? | / | 3% | /
